Calb biofilm kill: mixture kills Candida albicans biofilm cells; AID 1242; 0.02% of 120,000 active; C. albicans biofilm persisters + clotrimazole, fluorescence viability; primary screen in compound mixtures of four per well; inhibition, % at 7.6 µM;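 active = inhibition above 30.3% in the primary screen of four-compound pools, then above 30% when the compound was retested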;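 also: compounds exposed to preformed 24 h biofilms for 48 h; the number belongs to the whole pool; some results filed as inactive read as strong as hits; inactives centre near 12; 0% = biofilm with clotrimazole alone and 100% = kill control; retested singly at about 60 µM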
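Assay system: C. albicans biofilms / Medium: RPMI/MOPS medium, pH 7.0 / Schedule: biofilm formation 24 h, compound exposure 48 h, 37 °C / Measured by: Alamar Blue fluorescence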
Active calls of the source: *. Some of the compounds tested (hit frequency here may not be typical).

SMILES	Calb biofilm kill
COc1ccc2cc(CN(CC3CCCO3)C(=S)Nc3ccccc3)c(=O)[nH]c2c1 (stereo not drawn)	9
Cc1ccc(C)c(N(C)C(=O)c2cc3c(=O)[nH]c4ccc(C)cc4c3s2)c1	12
CC(=O)Nc1cccc(OCC(=O)Nc2sccc2C(N)=O)c1	8
O=C(NNC(=O)c1ccc(Oc2ccc(C3SCCS3)cc2)o1)c1ccc(Cl)cc1	13
CCCCn1c(SCC(=O)c2ccc(O)c(O)c2)nc2ccsc2c1=O	7
Cc1cccc(C(=O)N2CCC(=O)N(C(COCc3cccc(C(F)(F)F)c3)Cc3ccccc3)CC2)c1 (stereo not drawn)	15
CC(=O)c1sc(=S)n(-c2ccc(Cl)cc2)c1C	4
CC(C)CCC(O)(CCC(C)C)C(=O)NN1CCCCC1	3
O=C(O)Cc1ccc(NC(=S)NCc2ccco2)cc1	13
Cc1cc([N+](=O)[O-])nn1CC(=O)N/N=C/c1ccccc1Br	20
COC(=O)C1CCN(C2CC(=O)N(c3cc(C)cc(C)c3)C2=O)CC1 (stereo not drawn)	-3
CCOC(=O)CCC(=O)N(CCN(C(=O)CCC(=O)OCC)c1ccccc1)c1ccccc1	13
COC(=O)c1cc(S(=O)(=O)NCc2ccc(S(N)(=O)=O)cc2)oc1C	19
CC1CCN(S(=O)(=O)c2cn(CC(=O)N3CC(C)CC(C)C3)c(=O)c3ccccc23)CC1 (stereo not drawn)	23
CN1c2ccccc2C(C)(C)C12CC(c1ccc(Cl)c(S(=O)(=O)N3CCCC3)c1)=NO2 (stereo not drawn)	5
NS(=O)(=O)c1ccc(NC(=O)/C=C/c2ccccc2Cl)cc1	14
CC(C)Nc1ncnc2ccc(Br)cc12	19
CNC(=O)c1ccsc1NC(=O)c1ccc(S(=O)(=O)N2CCOCC2)cc1	15
Cc1cc[n+](CC(=O)c2ccc3c(c2)OCCO3)cc1	19
CC1CC(C)CN(C(=O)C2CCCN(S(=O)(=O)c3cnc[nH]3)C2)C1 (stereo not drawn)	19
COc1ccccc1OCCNC(=O)C1CCCCC1	1
O=c1[nH]c2ccccc2nc1C(Nc1ccccc1)c1ccccc1 (stereo not drawn)	12
Cc1ccc(CNC(=O)C(=O)NCC2OCCN2S(=O)(=O)c2ccc3c(c2)OCCO3)cc1 (stereo not drawn)	18
O=C1COc2cccnc2N1	14

Among those listed so far, these have a carbonyl joined to an NH by a bond outside any ring.
SMILES	Calb biofilm kill
CC(=O)Nc1cccc(OCC(=O)Nc2sccc2C(N)=O)c1	8
O=C(NNC(=O)c1ccc(Oc2ccc(C3SCCS3)cc2)o1)c1ccc(Cl)cc1	13
CC(C)CCC(O)(CCC(C)C)C(=O)NN1CCCCC1	3
Cc1cc([N+](=O)[O-])nn1CC(=O)N/N=C/c1ccccc1Br	20
NS(=O)(=O)c1ccc(NC(=O)/C=C/c2ccccc2Cl)cc1	14
CNC(=O)c1ccsc1NC(=O)c1ccc(S(=O)(=O)N2CCOCC2)cc1	15
COc1ccccc1OCCNC(=O)C1CCCCC1	1
Cc1ccc(CNC(=O)C(=O)NCC2OCCN2S(=O)(=O)c2ccc3c(c2)OCCO3)cc1 (stereo not drawn)	18

Next structures
SMILES	Calb biofilm kill
CCOC(=O)N1CCN(C(=O)C2CCN(Cc3cccc(OCc4ccccc4)c3)CC2)CC1	16
COc1ccc(C2(CNC(=O)c3ccccc3)CCOCC2)cc1	12
CCC(C)(C)C1CCc2[nH]nc(C(=O)N/N=C(\C)c3ccco3)c2C1 (stereo not drawn)	12
CCC(=O)Nc1ccc(Nc2nc(Cl)nc(Nc3ccc(NC(=O)CC)cc3)n2)cc1	24
O=c1nc(SCc2ccccc2Cl)nc(-c2ccc(Cl)cc2)[nH]1	11
COc1ccc(C(=O)NCCCc2nc3ccccc3n2Cc2cc(C)ccc2C)cc1OC	0
O=C(O)/C=C/C(=O)N1CCN(c2ccc(F)cc2)CC1	11
COc1ccc(NS(=O)(=O)c2ccc(O)c(C(=O)OCC(=O)NC(C)C3CC4CCC3C4)c2)cc1 (stereo not drawn)	9
COc1ccc(NC(=O)c2cn(-c3ccccc3)nc2SC)cc1	31
Cc1ccc(C)c(NC(=O)c2ccccc2Sc2ccc([N+](=O)[O-])cc2Cl)c1	14
O=C(CCS(=O)(=O)c1ccc(Br)cc1)Nc1ccc2c(c1)OCO2	17
COc1ccc(CCNCC2C(Oc3ccc(Cl)cc3)C(=O)N2c2ccccc2C)cc1OC (stereo not drawn)	14
CCc1c(C(=O)N/N=C/c2ccc(C)o2)csc1C	-3
Cc1cccc(C)c1NC(=S)/N=C/N(C)C	17
COC(=O)c1ccccc1S(=O)c1snnc1C (stereo not drawn)	17
CN1CC(=O)N(CC(=O)Nc2ccc(SC(F)F)cc2)C1=O	34
O=C(CSc1nc2ccsc2c(=O)n1CC1CCC(C(=O)O)CC1)c1ccc(F)cc1 (stereo not drawn)	9
CCOC(=O)c1ccc(Cl)c(S(=O)(=O)N2CCCC2)c1	13
COC(=O)c1cc(N=Nc2sc(N)nc2C)cc(C(=O)OC)c1	25
Cc1ccc(S(=O)(=O)N(C)c2ccccc2C(=O)Nc2ccc3c(c2)OCCO3)cc1	26
CC(C)CC(=O)Nc1ccc(N2CCN(S(C)(=O)=O)CC2)cc1	13
CCOC(=O)C1(Cc2ccccc2C)CCCN(Cc2ccc(NC(C)=O)cc2)C1 (stereo not drawn)	-2
C=CCn1c(COc2ccc(Cl)cc2)nnc1SCC(=O)Nc1ccc(S(N)(=O)=O)cc1	10
O=C(Cc1ccc(-c2ccccc2)cc1)OCC(=O)N1CCCC1=O	9
CCCCNC(=O)c1onc(CSc2ccc(F)cc2)c1C(=O)NCCCC	-2
Cc1nccc(-c2sc(-c3cccs3)nc2C)n1	11
O=C(NC1CCCc2ccccc21)C1CCN(S(=O)(=O)c2ccccc2)CC1 (stereo not drawn)	8
C#CCNC(=O)C1=C[C@@H](C2CCCCC2)C[C@@H](OCCCCO)O1	13
COc1ccc(NC(=O)CCN2CCOCC2)c(OC)c1	18
CCN(CC)S(=O)(=O)c1ccc(C(=O)Nc2ccc3c(c2)OCO3)cc1	13
CCC[C@@H]1C[C@@H](C(=O)N[C@H]([C@@H](C)O)[C@H]2O[C@H](SC)[C@H](O)[C@@H](O)C2O)N(C)C1 (stereo partly drawn)	-3
CN(C)c1ccc(/C=[N+](\[O-])C2N(c3ccccc3)C(=S)SC2(C)C)cc1 (stereo not drawn)	13
Cc1ccc(C(=O)NC2CCS(=O)(=O)C2)cc1S(=O)(=O)N1CCCCCC1 (stereo not drawn)	-2
CC(C)n1cc(/C=C2/NC(=O)NC2=O)c2ccccc21	2
CCCOc1ccc(CNC(=S)NCc2ccc(OC(C)C)cc2)cc1	14
CCCOc1ccc(N2CC(C(=O)NCCc3ccc(OC)c(OC)c3)CC2=O)cc1 (stereo not drawn)	0
NS(=O)(=O)c1ccc(N/N=C/c2cn(-c3ccccc3)nc2-c2cccs2)c([N+](=O)[O-])c1	-18
O=C(Nc1ccc(F)cc1)c1ccc(Cn2cnnn2)cc1	4
CN(C)C(=O)NC(NC(=S)Nc1ccccc1)C(Cl)(Cl)Cl (stereo not drawn)	5
COc1cc([N+](=O)[O-])c(N2CCOCC2)c([N+](=O)[O-])c1OC	11
CCCn1c(SCC(=O)Nc2cc(Cl)ccc2Cl)n[nH]c1=O	9
Cc1nc(N2N=C(c3ccc(Cl)cc3)CC2c2ccco2)sc1C(=O)N(C)C (stereo not drawn)	16
Nc1[nH]n2c(=O)cc(-c3ccccc3)nc2c1N=Nc1ccc(S(N)(=O)=O)cc1	-5
Cc1c(-c2cc(C(=O)O)c3ccccc3n2)cnn1C	29
CCCCN1C(=S)NC[C@@H]1Cc1ccc(O)cc1	15
CN(C)CCOCCOc1ccc(Cl)cc1Br	10
O=C(CCc1nc2ccccc2[nH]1)N1CCN(C(=O)c2ccco2)CC1	11
O=C(NCc1ccccc1Cl)c1ccc2c(c1)SC1=NS(=O)(=O)CCN12	15
O=C(NCCCN1CCOCC1)c1ccc(Sc2ccc(Br)cc2)c([N+](=O)[O-])c1	21
Cc1cccc2c1N(CCOc1ccccc1)C(=O)C2=O	6
COc1cccc(CCc2nnc(CCC(=O)N3CCCC3c3nccs3)o2)c1 (stereo not drawn)	22
O=S(=O)(Nc1nccs1)c1ccc(NCc2cc(Br)cc(Br)c2O)cc1	7
CC(C)N(C(=O)COC(=O)c1ccc(Cl)nc1)C(C)C	-4
N#CCCn1cc(/C=C2\NC(=S)N(c3ccccc3)C2=O)c(-c2ccc(F)cc2)n1	11
CCOc1cc(/C=N/NC(=O)C(=O)NC)cc(Br)c1O	9
COc1ccc(C2c3ccc4ccccc4c3Oc3ncn(Cc4ccco4)c(=N)c32)cc1OC (stereo not drawn)	11
CCOC(=O)C1CCN(C(=O)c2ccc(Cl)c(NC3=NC4CS(=O)(=O)CC4S3)c2)CC1 (stereo not drawn)	14
N/C(=N\OC(=O)c1ccc(=O)n(Cc2ccccc2)c1)c1ccccn1	7
CCOC(=O)C1(CC2CC2)CCN(Cc2ccc(O)c(Cl)c2)CC1	15
COc1ccc(CN(Cc2cccn2C)S(=O)(=O)c2cccc(C(F)(F)F)c2)cc1	22

More results:
SMILES	Calb biofilm kill
CCOC(=O)Cc1cc(=O)n2[nH]cc(-c3ccc(Cl)cc3)c2n1	19
O=C(O)C1=C[C@@H](c2ccccc2)C[C@@H](OCc2ccc(CO)cc2)O1	4
Cc1oc2ccc(OC(=O)COc3c(F)c(F)c(F)c(F)c3F)cc2c1C(=O)OC(C)C	11
COc1cc2c(cc1NC(=O)COC(=O)c1ccc(C(C)(C)C)cc1)oc1ccccc12	17
CC(C)c1cc(C(=O)O)c2ccccc2n1	23
CN(C(=O)c1ccccc1C(=O)OCC(=O)NCc1cccs1)C1CCCCC1	22
CCOc1ccc(N2C(=O)C3C(c4ccccc4)=NN(c4ccccc4)C3C2=O)cc1 (stereo not drawn)	8
CCC(CC)NC(=O)COc1ccc(OC)cc1C=O	10
O=C(CN1CCC(Cc2ccccc2)CC1)NCCc1ccc(F)cc1	4
CCOc1nc(NC2CCCCC2)nc(NC(C)(C)C)n1	7
Cc1cc(C)c(C#N)c(SCCN2CCOCC2)n1	10
CNC(=O)c1sccc1Oc1ccc(F)cc1[N+](=O)[O-]	18

Reprinted at random: seven records from the list
SMILES	Calb biofilm kill
CNC(=O)c1sccc1Oc1ccc(F)cc1[N+](=O)[O-]	18
CN(C(=O)c1ccccc1C(=O)OCC(=O)NCc1cccs1)C1CCCCC1	22
O=C(O)C1=C[C@@H](c2ccccc2)C[C@@H](OCc2ccc(CO)cc2)O1	4
Cc1cc(C)c(C#N)c(SCCN2CCOCC2)n1	10
Cc1oc2ccc(OC(=O)COc3c(F)c(F)c(F)c(F)c3F)cc2c1C(=O)OC(C)C	11
CC(C)c1cc(C(=O)O)c2ccccc2n1	23
CCOc1ccc(N2C(=O)C3C(c4ccccc4)=NN(c4ccccc4)C3C2=O)cc1 (stereo not drawn)	8

Other structures follow:
SMILES	Calb biofilm kill
COc1ccc(C(=O)NC(=O)NC2(C(Cl)(Cl)Cl)OCCO2)cc1	-12
O=C(CSc1nnc(-c2ccncc2)o1)NCc1ccc(Cl)cc1	6
O=C(Cn1c(-c2ccccn2)nc2ccccc21)N/N=C/c1cccnc1	15
COc1cc(-n2c(=O)c3ccccc3n(Cc3cc(=O)n4ccccc4n3)c2=O)cc(OC)c1OC	15
CCOc1ccccc1C(=O)N1CCC(C(=O)c2ccc(F)cc2)CC1	20
O=C(O)C1=C(OCc2ccc(F)c(F)c2)C(=O)NCC1	15
CCC(=O)NNc1ncnc2ccccc12	-3
Cc1ccsc1CNC(=O)c1c(-c2ccccc2)noc1C	17
CCOC(=O)COc1ccc(C2CC(C)=NN2c2ccccc2)cc1 (stereo not drawn)	20
CCO[C@@H]1OC(C(=O)O)=C[C@H](C2CCCCC2)[C@H]1CCCO	12
Cc1cc(Cl)c2cc3ccccc3cc2n1	18
O=C(Nc1ccccc1N1CCCC1)c1cccnc1	12
O=C(c1cnc2sccn2c1=O)N1CCc2ccccc2C1	-10
COc1ccc(N2C(=O)C3NN=C(C(=O)OCc4ccccc4)C3C2=O)cc1 (stereo not drawn)	6
COc1ccc(/C=C/C(=O)OCC(=O)Nc2ccc(Cl)cn2)cc1	13
CCOC(=O)Cc1csc(NC(=O)CSc2nnnn2-c2ccc(C)cc2C)n1	18
O=C(NCc1ccc(Cl)cc1)NCC(F)(F)F	3
COC(=O)c1ccc(NC(=O)C(OC)c2ccccc2)cc1 (stereo not drawn)	3
O=C(Nc1ccc(F)cc1)NC1CCN(Cc2ccccc2)CC1	17
C=CCCN(Cc1ccccc1)S(=O)(=O)c1ccccc1Br	17
CC(C)COc1ccc(C(=O)N/C(=C\c2cccc([N+](=O)[O-])c2)C(=O)O)cc1	21
O=C(N/N=C/c1c(Cl)cccc1Cl)C(=O)NC1CC1	10
CC(C)CCNC(=O)C(c1ccc(O)cc1)N(Cc1cccs1)C(=O)C1COc2ccccc2O1 (stereo not drawn)	14
CNc1ccccc1C(C)(C)c1cc(C)[nH]n1	12

2 entries from above in another layout:
canonical_smiles | Calb biofilm kill
COC(=O)c1ccc(NC(=O)C(OC)c2ccccc2)cc1 (stereo not drawn) | 3
O=C(Nc1ccc(F)cc1)NC1CCN(Cc2ccccc2)CC1 | 17

(cont.)
SMILES	Calb biofilm kill
O=C(NCc1cccnc1)c1ccc(Cn2c(=S)[nH]c3ccc(Br)cc3c2=O)cc1	12
CCC(=O)C1=C(O)C(c2cccc(Oc3ccccc3)c2)CCC1=O (stereo not drawn)	13
N#Cc1cc2c(nc1SC1CC(=O)N(c3ccccc3)C1=O)CCC2 (stereo not drawn)	0
CCOc1ccc(/C=N/NC(=O)c2cc(-c3cccn3C)n[nH]2)cc1	21

High-throughput results (PubChem BioAssay)
